Assay outcomes: PubChem BioAssay, National Center for Advancing Translational Sciences (NCATS)
VDR inhibitor = blocks the human vitamin D receptor. P11473. Potency, µM, for the others: max response, negative = inhibition, usual class: inhibitors. VDR-SRC2-3 peptide fluorescence polarization, 2 h. actives 0.93% (n = 400,000). AID 504847; active = well fitted inhibition curve with a large enough effect; inconclusive = small, poorly fitted or top-dose-only effect, or another doubt; inactive = no such curve, though single readings can be large or run the other way; note: series mostly up to about 120 µM
Target sequence (P11473 whole entry, looked up): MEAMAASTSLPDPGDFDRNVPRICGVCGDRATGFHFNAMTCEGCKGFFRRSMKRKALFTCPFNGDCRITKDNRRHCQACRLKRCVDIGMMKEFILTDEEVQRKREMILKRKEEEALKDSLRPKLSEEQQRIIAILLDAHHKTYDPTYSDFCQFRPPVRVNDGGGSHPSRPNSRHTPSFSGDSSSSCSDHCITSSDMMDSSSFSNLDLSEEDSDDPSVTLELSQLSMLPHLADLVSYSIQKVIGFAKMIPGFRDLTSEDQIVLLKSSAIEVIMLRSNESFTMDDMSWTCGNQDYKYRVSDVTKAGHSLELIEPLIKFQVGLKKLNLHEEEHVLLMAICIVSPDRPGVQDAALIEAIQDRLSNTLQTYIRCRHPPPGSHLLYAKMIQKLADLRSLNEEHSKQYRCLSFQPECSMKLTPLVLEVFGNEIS
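Two reagent solutions held at 4 deg C in the dark were dispensed, compounds pinned at 23 nl, and the mixture incubated 2 h at room temperature. Read-out: fluorescence polarization of VDR–SRC2-3 peptide binding.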
* marks the source's active call; other numbers are inactive results; ? = inconclusive; & = joins results of further samples; [ ] = remark or other dose. % is set by controls: 0 for no effect and ±100 for the full control effect; potency is the fitted concentration of half-maximal effect.

canonical_smiles	VDR inhibitor
Cc1ccsc1C(=O)NNC(=O)C1C2C=CC(C2)C1C(=O)O (stereo not given)	-4.0%
CC(=O)c1cccc(NC(=O)c2ccc(-c3ccccc3[N+](=O)[O-])o2)c1	-7.5%
CCC(Oc1cccc(C)c1)C(=O)Nc1ccccc1C(=O)N1CCOCC1 (stereo not given)	?
CCOC(=O)c1c(NC(=O)C2CC2)sc2c1CC(C)(C)OC2	1.2%
NC(=O)c1ccc(-c2nnc(Nc3ccc(S(N)(=O)=O)cc3)c3ccccc23)cc1	-7.8%
C=CCNC(=O)/C(=C\C=C\c1ccccc1)NC(=O)c1ccccc1Cl	-3.5%
CC(=O)c1ccc(N(C)C)c2c(N(C)C)cccc12	5.9%
Cc1noc(C)c1-c1nccc(NC2CC2)n1	50.1µM*
CCOc1ccc(C(=O)CCC(=O)Nc2cc(C)ccn2)cc1	-24.4%
O=C(COC(=O)c1cc(S(=O)(=O)NCc2ccccc2)ccc1O)NCc1ccccc1	-0.4%
CCOc1ccc(-c2nc(S(=O)(=O)c3ccccc3)c(N3CCOCC3)o2)cc1	-5.4%
CCOCCCn1c(SCC(=O)/C(C#N)=C(\C)N)nc2ccccc2c1=O	-2.9%
COc1ccccc1C(=O)NC1CC2CCC(C1)N2Cc1ccccc1 (stereo not given)	13.8%
C=CCN1C(=O)/C(=C/C(=O)OC)S/C1=N\NC(=O)c1ccccc1	?
O=C1CC(c2ccccc2)(c2ccccc2)c2ccccc21	-2.3%
COc1ccc(C(=O)N2CC(=O)Nc3ccc(C)cc3C2c2ccccc2)cc1OC (stereo not given)	-10.1%
CC1CCCN(Cc2cnc(Cl)s2)C1 (stereo not given)	-12.9%
CC1C(=O)OC2C1CCC1(C)CCC(=O)C(C)C21 (stereo not given)	-1.4%
COc1ccccc1C(=O)NCCn1cc(SCC(=O)Nc2ccccc2F)c2ccccc21	-2.3%
O=C1OC(/C=C/c2ccccc2)=NC/1=C/C=C/c1ccccc1	?
O=C(c1ccccc1)C(Sc1ncn[nH]1)c1ccccc1 (stereo not given)	-11.2%
N#Cc1cccc(-c2nccc(NCc3ccccc3)n2)c1	-16.8%
CC(C)c1ccc(N(CC(=O)NCc2cccnc2)S(=O)(=O)c2ccccc2)cc1	-19.0%
COc1ccc(OCC(=O)Nc2cccc(-c3nc4ccccc4[nH]3)c2)cc1	8.6%
CSc1nc(N2CCN(c3ccccc3)CC2)cc(N2CCN(c3ccccc3)CC2)n1	-4.4%
COc1ccc(-c2nc3ccccn3c2Cl)cc1	2.5%
Cc1cccc(N=C2NC(=O)/C(=C/c3cn(C)c4ccccc34)S2)c1	-1.6%
COc1ccc(-n2c(=O)c(-c3cccs3)nc3cnc(N4CCNCC4)nc32)cc1	0.6%
COC(=O)Cn1c(=O)c2c(nc3n2CCN3c2cccc(C)c2)n(C)c1=O	10.7%
O=C(Cn1cnc2c(nnn2Cc2ccccc2)c1=O)N1CCN(c2ccccc2)CC1	-4.9%
CCOC(=O)CSc1nc2c(sc3ccccc32)c(=O)n1Cc1ccc(OC)cc1	9.1%
CCOc1ccc(NC(=S)NC(=O)c2c(Br)cnn2C)c([N+](=O)[O-])c1	0.8%
Cc1ccc(S(=O)(=O)N2CCN(C(=O)COC(=O)c3c(C)noc3C)CC2)c(C)c1	-10.6%
CC(C(=O)N(C)C1CCS(=O)(=O)C1)N1C(=O)/C(=C/c2cccs2)SC1=S (stereo not given)	-13.5%
Cc1ccc(NC(=O)c2ncn(CCCNCc3ccccc3)n2)cc1C	-14.4%
CC(Sc1nnc(Cc2cccs2)n1C)C(=O)Nc1ccc(C(N)=O)cc1 (stereo not given)	-4.7%
CC1(C)OC(=O)C(=Cc2ccc(-c3ccc(S(N)(=O)=O)cc3)o2)C(=O)O1	79.4µM*
COCCNC(=O)/C(C#N)=C\c1ccc(CNC(=O)C(=O)Nc2ccc(C)c(C)c2)o1	-14.8%
COc1ccc(/C=C2\SC(=S)N(NS(=O)(=O)c3ccccc3)C2=O)c(OC)c1	23.0%
CC(C)c1ccc(NC(=O)COc2nncc3ccccc23)cc1	-2.2%
CN(c1ccccc1C(=O)Nc1ccc(S(=O)(=O)N2CCOCC2)cc1)S(C)(=O)=O	-3.3%
Cc1ccc(S(=O)(=O)N(C)C)cc1NC(=O)[C@H](Cc1ccccc1)N1C(=O)c2ccccc2C1=O	-10.5%
COc1ccc(C(C)(C)C)cc1NC(=O)COC(=O)c1cnc(C)cn1	8.0%
CN(c1ccccn1)c1ncnc2[nH]ncc12	-7.8%
O=C(CC1S/C(=N/N=C/c2c[nH]c3ccccc23)NC1=O)Nc1ccccc1 (stereo not given)	-3.6%
CC(=O)O[C@]1(C(C)=O)CC[C@@H]2[C@@H]3C=C(C)C4=CC(=O)CC[C@@]4(C)[C@H]3CC[C@]21C	?
COc1cccc(CN2CCCC(N3CCc4ccccc4C3)C2)c1O (stereo not given)	31.1%[activator]
CN(C)/N=C/c1ccc([N+](=O)[O-])cc1[N+](=O)[O-]	-13.8%
COc1ccccc1N(C)C(=O)c1cc(S(=O)(=O)N2CCCC2)cn1C	-19.0%
Cc1ccc(Oc2coc3cc(OCC(=O)NC4CCCCC4)ccc3c2=O)cc1	-0.2%
CCN(CC)CCNC(=O)C(C)c1nn(C)c(=O)c2ccccc12 (stereo not given)	1.4%
N=c1c(C(=O)NCc2ccco2)cc2c(=O)n3ccccc3nc2n1CCc1ccccc1	-4.0%
O=C(O)c1cc2ccccc2cn1	3.8%
CC(c1nc2ccccc2c(=O)[nH]1)N1CCCN(S(=O)(=O)c2ccc(F)cc2)CC1 (stereo not given)	-8.4%
Cc1cc(O)cc(=O)n1CCc1ccccc1	-9.4%
Fc1ccc(OCc2nc(-c3cccs3)no2)cc1	-20.7%
CCCCNC(=O)CSc1nc2n[nH]c(C)c2c(=N)n1-c1ccccc1CC	0.9%
CCn1c(=O)n(CC)c2cc(S(=O)(=O)N3CCC(c4ccccc4)CC3)ccc21	-11.0%
CC(O)C1CCC2C3CCC4CC(O)CCC4(C)C3C(=O)CC12C (stereo not given)	5.1%
Cc1cc(NC(=O)CSc2nc(-c3ccccc3Cl)nc3c2c(=O)n(C)c(=O)n3C)no1	14.8%

Later entries.
canonical_smiles	VDR inhibitor
Cc1ccc(N=Nc2c(N)[nH]n3c(=O)cc(C)nc23)cc1	-25.5%
COc1ccccc1CNC(=O)Cc1ccc(C)cc1	6.1%
Cc1ccc(-c2nn(-c3ccccc3)cc2C(=O)NCC2CCCO2)cc1 (stereo not given)	-13.0%
CCN(CC)c1ccc(NC(=S)Nc2ccc(F)cc2)cc1	?
Cc1ccc(-n2nc3c(=O)n(CCCC(=O)NC4CCC(C)CC4)nc(C)c3c2C)cc1 (stereo not given)	-7.9%
O=C(O)Cn1nnc(-c2cccs2)n1	-5.9%
COc1ccc(S(=O)(=O)NC2CC3CCC2C3)cc1Cl (stereo not given)	-6.7%
O=C(CN1C(=O)c2ccccc2C1=O)OCC(=O)N1CCCCC1	-11.7%
COc1ccc(S(=O)(=O)N(C(=O)c2ccncc2)c2ccc3oc(C)c(C(C)=O)c3c2)cc1	13.3%
CCCS(=O)(=O)Nc1cc(-c2cn3ccc(C)cc3n2)ccc1C	12.8%
CCOC(=O)N1CCN(Cc2nc(-c3ccc(Cl)cc3)no2)CC1	4.3%
O=C(Nc1cc(S(=O)(=O)Nc2ccc(Cl)cc2)ccc1N1CCCCC1)c1ccc(F)cc1Cl	-7.3%
Cc1cc(C(=O)Cn2cnc3ccccc3c2=O)c(C)n1C1CC1	-12.0%
C=C1CCN([C@@H](Cc2ccccc2)C(=O)NCc2ccccc2)S(=O)(=O)c2ccccc21	-21.4%
COc1ccc(C(C(=O)NC2CCCCC2)N(C(=O)c2cccs2)c2ccc3c(c2)OCO3)cc1 (stereo not given)	9.5%
COc1ccccc1/C=C1\SC(=S)N(CCC(=O)Nc2cc(C)on2)C1=O	11.5%
NNC(=O)CCN1CCCCC1	-9.3%
CCCc1ccc2oc(C(=O)N(C)CCn3ccnc3C)c(C)c2c1	6.2%
Cc1c(C(=O)Nc2ccccc2F)sc2ncnc(N(C)C3CCCCC3)c12	-0.6%
CCOC(=O)c1c(C)[nH]c(C)c1S(=O)(=O)N(C)CC(=O)NCc1ccc(C)cc1	2.3%&-3.7%
COc1cc(C(CC(=O)N2CCCC2)c2c(OC)cc(OC)c3c(-c4ccccc4)cc(=O)oc23)cc(OC)c1OC (stereo not given)	-14.5%&-27.9%
NC(=O)C1CCN(C(=O)CCC(=O)N2CCOc3ccc(Cl)cc32)CC1	-0.6%
CCn1c(=O)c2ccccc2n(CC(=O)NC2CCCCC2)c1=O	10.2%
CC(C)c1ccc(CNc2ccc3c(c2)ncn3C)cc1	3.6%
COc1cccc(NC(=O)Cn2c3ccc(F)cc3c3nc4n(c(=O)c32)CCCS4)c1	2.7%
CCCc1cc(=O)[nH]c(SCC(=O)Nc2cccc3ccccc23)n1	5.0%
Cc1ccc(-c2c(C)n([O-])c3c([n+]2=O)CCCC3)o1	-12.3%
CCc1c2ccccc2nn1-c1ccccc1C(=O)C(C)=O	22.0%
Cc1ccc(C2(c3ccc(C)cc3)CC2C(=O)NC(C)C)cc1 (stereo not given)	-17.5%
CC(C)(C)NC(=S)N1CCC(C(=O)c2ccc(Cl)cc2)CC1	12.1%
CS(=O)(=O)N(CC(=O)NC1CC1)c1cccc(F)c1	15.3%
CCN(C(=O)c1cc(S(=O)(=O)N2CCCC2)cn1C)c1ccc(OC)cc1	8.9%
COc1ccc(CN(Cc2ccccc2)C(C)=O)cc1COc1ccc(NC(C)=O)cc1	-9.4%
CN(C(=O)CSc1nnc(-c2cccs2)o1)C1CCS(=O)(=O)C1 (stereo not given)	10.8%
O=C(Nc1ccc(CN2CCOCC2)cc1)c1ccc(Cl)cc1	-29.6%
O=C(COc1ccccc1)NNC(=O)c1cccs1	-11.4%

Looked up by compound from the list above:
canonical_smiles	VDR inhibitor
CN(C(=O)CSc1nnc(-c2cccs2)o1)C1CCS(=O)(=O)C1 (stereo not given)	10.8%
COc1ccc(CN(Cc2ccccc2)C(C)=O)cc1COc1ccc(NC(C)=O)cc1	-9.4%
COc1cccc(NC(=O)Cn2c3ccc(F)cc3c3nc4n(c(=O)c32)CCCS4)c1	2.7%
O=C(Nc1ccc(CN2CCOCC2)cc1)c1ccc(Cl)cc1	-29.6%

(more compounds)
canonical_smiles	VDR inhibitor
COc1ccc(C(=O)NNC(=S)NC(=O)c2ccco2)cc1	30.5%
O=C(Nc1ccccc1N1CCN(c2ccccc2)CC1)C12CC3CC(CC(C3)C1)C2	12.0%
CSCCC1NC2(C(=O)Nc3c(Cl)cccc32)[C@@H]2C(=O)N(C3CCCC3)C(=O)[C@H]12 (stereo not given in full)	12.2%
O=C(Cn1cccc1C(=O)c1ccccc1)NCCCN1CCc2ccccc2C1	10.5%
OCC[C@H]1C[C@H](O)[C@@H](O)[C@]2(Cc3ccccc3CO2)O1	-13.0%
C=C1C([C@@]2(C)C(OC(C)=O)CC(=O)O[C@@](C)(COC(C)=O)C2CC(=O)OC)C(OC=O)C(OC(=O)C(O)C(C)CC)[C@]2(C)C(c3ccoc3)CC(=O)C12O (stereo not given in full)	-1.5%
CCOC(=O)c1cn[nH]c1NC(=S)Nc1ccc(Cl)cc1	-20.1%
O=S(=O)(c1ccc(OCC(O)CN2CCN(c3ccccc3)CC2)cc1)N1CCOCC1 (stereo not given)	24.1%
CCCc1n[nH]c(=O)[nH]1	9.4%
CCOC(=O)c1ccc(N2C(=O)c3n[nH]c(-c4ccco4)c3C2c2ccc(OC)cc2OC)cc1 (stereo not given)	-23.1%
COc1cccc(-c2nc(SCC(=O)NC3CCCC3)c(-c3ccccc3)[nH]2)c1	-12.7%
O=C(CN1C(=O)/C(=C/c2ccccc2)SC1=S)NC1C=CS(=O)(=O)C1 (stereo not given)	-3.4%
CCOc1cccc(C2c3c(oc4ccc(F)cc4c3=O)C(=O)N2c2cc(C)ccn2)c1 (stereo not given)	-4.8%
Cc1cc(NC(=O)c2cc(C(C)C)on2)nn1Cc1ccc(Cl)cc1	-14.6%
Cc1c(C(=O)NN2CCOCC2)cccc1[N+](=O)[O-]	3.2%
CCOC(=O)c1ccc(NC(=O)Cn2nnc(-c3ccccc3)n2)cc1	-19.7%
CCOC(=O)c1ccc(NC(=O)CN2CCN(C(=O)C3CCCO3)CC2)cc1 (stereo not given)	5.4%
Cc1ccc(NC(=O)CN(C)C(=O)Cc2ccccc2F)cc1	10.8%
Cc1cccc2cc(C#N)c(SCC(=O)Nc3ccccc3N3CCOCC3)nc12	-0.7%
CCc1ccc2[nH]c(=O)c(CN(CCN(C)C)C(=O)Nc3ccccc3)cc2c1	12.2%
CCN1CCN(C(=O)CN(CC)S(=O)(=O)c2ccc(F)cc2)CC1	-6.5%
O=C(Nc1cccc2c1C(=O)NC2=O)c1cccc(N2C(=O)CCC2=O)c1	-8.3%
Cc1cc(C)c(NC(=O)CNC(=O)Cc2ccc(S(=O)(=O)N3CCOCC3)s2)c(C)c1	3.3%
CCN1C(=O)c2ccccc2Sc2ccc(NC(=O)Nc3ccc(C(C)=O)cc3)cc21	7.0%
Cc1ccc(-c2nc3ccccc3[nH]2)cc1NC(=O)c1sc2ccccc2c1Cl	-1.7%
CCC(C)NC(=O)C1CCC(CNS(=O)(=O)c2ccc3c(c2)CC(C)N3C(C)=O)CC1 (stereo not given)	?
CCC1(CC)Cc2ccccc2-c2nc(CN3CCOCC3)[nH]c(=O)c21	-0.7%

This is a subset, so the mix of outcomes need not match the whole.
